gsp agonist: gsp mutant agonism. gsp mutant cells, cAMP HTRF, 30 min; control for the full effect not named in the record. Potency, µM (doses to about 76.9 µM), without a hit: top-dose activation (cAMP increase), most hits filed as activators. 340,000 compounds, 0.13% hits. AID 624287; active = well fitted activation curve with a large enough effect; inconclusive = small, poorly fitted or top-dose-only effect, or another doubt; inactive = no such curve, though single readings can be large or run the other way; cell line not stated here;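 further: phosphodiesterase inhibitor Ro 20-1724 added with compounds to block cAMP breakdown; potency means the concentration at half of the fitted maximal effect; nearly all actives have a fitted effect of over 60% in size; about a fifth of the inactives were tested at one dose only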
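Cells in DMEM/10% FBS with G418 were pretreated with compounds in DMSO plus […] (300 uM stock) for 30 min at 37C. cAMP was measured by HTRF (cAMP-d2 plus anti-cAMP antibody-K) after 30 min at room temperature.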
Menin-MLL FL inh: displaces fluorescein MLL peptide from human menin. 290,000 tested, under 10 active. FP activity change, % at 61.4 µM. Fluorescence polarization, fluorescein-MLL peptide displacement from menin. AID 1766; inconclusive = falling polarisation curve, or a change in total fluorescence; inactive = total fluorescence flat and polarisation flat or rising; no compound was filed as active; the % refers to the polarisation; negative = inhibition;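 further: % of control where 0% means no effect; inhibitors lower the polarisation; unlabelled MLL peptide was the positive control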
Sfp PPTase inh: inhibitors of Bacillus subtilis Sfp phosphopantetheinyl transferase. Q9F4F7. Biochemical Sfp PPTase activity, qHTS. Potency, µM, for the others: max response, negative = inhibition, hits mostly inhibitors. 310,000 compounds, 3.5% hits; active means well fitted inhibition curve with a large enough effect; inconclusive means small, poorly fitted or top-dose-only effect, or another doubt; inactive means no such curve, though single readings can be large or run the other way;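 further: the enzyme is Sfp with the accession as filed and its product quenches rhodamine fluorescence; potency means the concentration at half of the fitted maximal effect; 0% = enzyme reaction without inhibitor and -100% = no enzyme wells; top concentration of the series not given in the record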
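Sfp 15 nM + cpd, 15 min RT; start w/ rhodamine-CoA 5 uM, BHQ-2-YbbR 12.5 uM (final); 50 mM Hepes pH 7.6, 10 mM MgCl2, 0.01% NP-40, 0.01% BSA; read 525/598 nm at 0 and 30 min.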
TRPV1 potentiator: enhances activation of the human vanilloid receptor TRPV1; Q8NER1; TRPV1-expressing cells, Fluo-8 calcium influx, capsaicin EC20 potentiation; host cell line not named in the record; control for the full effect not named in the record; potentiation, % at 8.33 µM; 320,000 compounds, 0.02% hits; AID 540277; active means potentiation above 80%; inconclusive means 30% to 80%; inactive means below 30%; further: 0% is about no effect
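Cells expressing TRPV1 were dye-loaded with Fluo-8 and read kinetically: 10 s baseline, 3 min after compound (agonist portion), then 2 min after EC20 capsaicin (allosteric enhancer portion). Calcium-bound dye fluorescence at 480/520 nm.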
gsp antagonist: gsp mutant antagonism. AID 624288. gsp-mutant cells, cAMP HTRF, 30 min; control for the full effect not named in the record. 340,000 compounds, 0.4% hits. Potency, µM (highest dose often 76.9 µM), for inactives: at the highest dose activity change, negative = inhibition, actives largely listed as inhibitors; active = falling curve of any shape with a large fitted effect; inconclusive = falling curve, mostly with a smaller effect; inactive = flat or rising curve; cell line not stated here;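 further: intracellular cAMP measured with PDE inhibitor Ro 20-1724 present during compound exposure; potency means the concentration at half of the fitted maximal effect; on the % scale 0 is the no-effect control and ±100 the full control effect; nearly all actives have a fitted effect of over 65% in size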
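HTRF cAMP read-out (cAMP-d2 plus anti-cAMP antibody-K in lysis buffer, 30 min RT). Before lysis, cells are exposed to compounds with […] for 30 min at 37C in DPBS containing Ca/Mg, BSA and Tween 20.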
TRPML1 inh: blocks the human TRPML1 channel; Q9GZU1; TRPML1-inducible cells, Ca2+ dye fluorescence, FDSS; hits give low values; inhibition of EC80 agonist-evoked calcium signal; activity change, negative = inhibition, % (concentration not given with the values); 390,000 compounds, 0.02% hits; in the data active means activity change below about -50%; inconclusive means about -30% to -50%; inactive means above about -30%;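 further: stimulus is agonist 54-4 at its EC80 concentration; on the % scale 0 is the no-effect control and ±100 the full control effect; the text of the record puts the active cut at -80%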
Target sequence (Q9GZU1 whole entry, looked up): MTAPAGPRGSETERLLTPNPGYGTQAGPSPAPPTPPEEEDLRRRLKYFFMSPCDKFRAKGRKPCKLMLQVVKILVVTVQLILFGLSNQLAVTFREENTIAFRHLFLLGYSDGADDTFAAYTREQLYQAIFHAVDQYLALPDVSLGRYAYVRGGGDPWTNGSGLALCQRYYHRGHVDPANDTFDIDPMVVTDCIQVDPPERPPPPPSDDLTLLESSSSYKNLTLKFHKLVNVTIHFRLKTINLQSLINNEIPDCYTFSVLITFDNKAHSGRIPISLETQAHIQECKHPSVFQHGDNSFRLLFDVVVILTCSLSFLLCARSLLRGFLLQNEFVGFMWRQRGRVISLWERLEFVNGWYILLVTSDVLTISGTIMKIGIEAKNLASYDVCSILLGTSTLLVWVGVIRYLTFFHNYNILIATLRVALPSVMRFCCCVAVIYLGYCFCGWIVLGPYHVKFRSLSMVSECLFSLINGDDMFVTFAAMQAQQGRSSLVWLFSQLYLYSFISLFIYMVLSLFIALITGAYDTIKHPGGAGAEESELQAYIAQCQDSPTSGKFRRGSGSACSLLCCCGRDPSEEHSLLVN
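TRPML1-DL cells, Tet-induced overnight (~16 h, 37 °C) at 1,500 cells/well, were loaded with Ca8 no-wash dye plus quencher for 45-90 min at room temperature. Compounds were pinned during FDSS kinetic reading; agonist 54-4 at EC80 (4 uM final) then added.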
ClpP mod: qHTS Assay for Activators of ClpP; AID 651965, 2013; purified B. subtilis ClpP, FRET peptide cleavage, 20 min; 340,000 compounds, 1.9% hits; Potency, µM (highest dose often 57.5 µM), inactives show at the highest dose activity change, negative = active; ATP-dependent Clp protease proteolytic subunit (Bacillus subtilis (strain 168)), P80244; active = well fitted falling curve with a large enough effect; inconclusive = small, poorly fitted or top-dose-only effect; inactive = no such curve, though single readings can be large or run the other way; further: potency means the concentration at half of the fitted maximal effect; the source files actives as falling curves though it sought activators and does not explain the sign; nearly all actives have a fitted effect of over 65% in size; many hits overshoot -100%
Target sequence (P80244 whole entry, looked up): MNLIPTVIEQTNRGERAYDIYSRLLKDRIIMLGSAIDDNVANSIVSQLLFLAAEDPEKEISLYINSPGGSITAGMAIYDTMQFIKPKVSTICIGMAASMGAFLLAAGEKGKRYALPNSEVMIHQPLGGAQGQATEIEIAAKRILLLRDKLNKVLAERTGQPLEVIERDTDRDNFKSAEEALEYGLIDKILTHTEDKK
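FRET quenching reversal measured ClpP activation: 10 microg/mL B. subtilis ClpP at pH 8 with the FRET-FV decapeptide, read at 430 nm after 320 nm excitation. The 20-min minus 0-min signal was scaled between DMSO/no-enzyme wells and ADEP (5.8 microM final).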
* = called active by the depositor; ? = inconclusive; . = not tested or not shown; & = joins results of further samples; [ ] = remark or other dose. Compounds were not picked by outcome; 4.9% or so of the library scored in one or more.

SMILES	gsp agonist	Menin-MLL FL inh	Sfp PPTase inh	TRPV1 potentiator	gsp antagonist	TRPML1 inh	ClpP mod
CCOC(=O)C1=C(Cc2ccc(F)cc2)C(=O)c2ccccc2C1=O	6%	3.2	8.9µM*	-8	-1%	20	1.1%
O=C(/C=C/c1ccccc1)NCc1ccc2c(c1)OCO2	4%	-0.8	15%	-12	?	5	-2.3%
COCCCNC(=O)c1cc(S(=O)(=O)N2CCC3(CC2)OCCO3)ccc1F	14%	.	.	.	.	2	-2.1%
CN1CCN(C(=O)CCc2nc(-c3ccc(Cl)cc3)no2)CC1	-29%	1.4	18%	-6	10%	-13	0.5%
Cc1noc(C)c1COc1ccccc1C(=O)N(C)CC(=O)Nc1ccc(F)c(F)c1F	5%	.	.	-8	-1%	6	-0.8%
O=C(COC(=O)C1(c2ccc(F)cc2)CCCC1)NCc1ccc2c(c1)OCO2	?	-0.7	10%	-14	-33%	21	-1.1%
O=C(OCCN1CCOCC1)c1ccc2c(c1)OCCO2	-13%	0.6	1%	18	1%	-1	-6.8%
CCN1CCN(CC2COc3ccccc3O2)CC1 (configuration not stated)	3%	-10	-7%	?	-2%	-11	-0.5%
CCc1cccc(CC)c1-n1c(SCC(=O)N2CCCc3ccccc32)nc(O)cc1=O	-1%[15.4 µM]	.	.	.	?	0	-3.5%
CCOC(=O)c1cc2c(=O)n3ccccc3nc2n(Cc2ccco2)c1=NC(=O)c1ccccc1OC	18%[15.4 µM]	?	35µM*	5	-18%	43&-5	4.6%
O=C(NCC1(N2CCCCC2)CCCCC1)c1cccc(S(=O)(=O)Nc2ccccc2Cl)c1	-46%[inhibitor]	.	.	.	-6%	6	-1.2%
CCN1C(=O)/C(=C2\SC(=S)N(c3c(C)n(C)n(-c4ccccc4)c3=O)C2=O)c2ccccc21	-39%[inhibitor]	1.9	17%	11	3%	17	-2.2%
CCOC(=O)C1C(=O)NC(N2CCc3ccccc32)=NC1c1ccccc1 (configuration not stated)	-3%	4.6	18%	1	2%	18	-3.1%
COc1cc2c(c(OC)c1OC)-c1c(cc3c(c1OC)OCO3)C1OC2[C@@H](C)[C@H]1C (some centres not stated)	.	-1.1	15%	18	-5%	12	-2.8%
Cc1cc(C(=O)OCC(=O)N2CCN(c3ccccc3)CC2)c2ccccc2n1	-26%	-1.5	6%	?	-21%	86	-5.6%
Cc1ccc(C2/C(=C(/O)c3ccc(Br)cc3)C(=O)C(=O)N2Cc2ccco2)o1 (configuration not stated)	8%	?	3.5µM*	4	-8%	5	0.2%
CN(Cc1ccc(F)cc1)C(=O)C(c1ccccc1)c1ccccc1	11%[15.4 µM]	-7.7	11%	-18	-12%	-4	.
CC(=O)Nc1ccc(C(=O)CSc2nccc(=O)[nH]2)cc1	3%	0.2	-22%	2	10%	4	.
CC(=O)Nc1ccc(S(=O)(=O)N2CCN(c3cccc(C)c3C)CC2)cc1	1%	-2.7	-5%	-4	-10%	0	-3.0%
N#C/C(=C\c1ccc(-c2ccccc2)cc1)c1nc(-c2ccco2)cs1	0%	2.2	6%	2	6%	32	0.9%
Cc1ccccc1OCC(=O)Nc1nc(-c2ccncc2)cs1	0%	.	.	-6	?	8	0.2%
COc1ccccc1-c1nc2cc3ccccc3cc2nc1-c1ccccc1OC	6%	2.4	0%	23	-12%	12	.
Cc1cccc2sc(NC(=O)CNS(=O)(=O)c3ccc(Br)s3)nc12	-5%	3.9	-1%	.	-5%	-13	0.3%
CCC(=Nc1ccc(N)cc1)C1=C(O)C(C(=O)OC)C(C)(C)CC1=O (configuration not stated)	-23%	?	45µM*	?	-17%	-4	-7.8%
COc1ccc(/C=C(\C)C(=O)c2c(C)cc(C)[nH]c2=O)cc1	-2%[15.4 µM]	.	.	.	5%	-18	-1.8%
COc1ccc(N(CCC#N)S(=O)(=O)c2cccc3nsnc23)cc1	-1%	-3.0	3%	5	4%	1	6.5%
CC1=Nc2cc(C(=O)NCCCOC(C)C)ccc2Sc2ccccc21	3%[15.4 µM]	5.4	19%	-32	18%	4	.
CC(O)CNC1c2ccccc2CC1O (configuration not stated)	1%	.	.	.	0%	-4	.
COC(=O)c1ccc(C(=O)OC)c(NC(=O)CN(C)Cc2ccccc2)c1	?	7.7	-6%	-14	-23%	6	.
CC1(C)NC(=O)N(CCCC(=O)Nc2ccc(C(F)(F)F)cc2)C1=O	-12%	.	.	-12	-1%	1	-0.3%
C[C@]12CCC(=O)C=C1CCC1C2CC[C@@]2(C)C1CCC21OCCO1 (some centres not stated)	-71%[inhibitor]	.	.	.	-1%	21	.
CCn1c(SCC(=O)Nc2nnc(C)s2)nc2c(c1=O)SC(C)C2 (configuration not stated)	-23%	0.9	21%	12	-6%	-10	-2.6%
O=C(c1ccc(NS(=O)(=O)c2cccc(C(F)(F)F)c2)cc1)N1CCCC1	13%	.	10%	6	-23%	5	-8.3%
Cn1cc([N+](=O)[O-])c(C(=O)N2CCCCCC2)n1	9%	.	27%	8	14%	2	-0.9%
CCOc1ccc(S(=O)(=O)n2ccc(C)n2)c2ccccc12	-10%	4.1	3%	1	?	-1	-16%
CCN(C(=O)Cn1ccc(C(F)(F)F)n1)c1c(N)n(Cc2ccccc2)c(=O)[nH]c1=O	-38%[inhibitor]	.	.	-4	11%	12	-1.1%
N#C/C(=C\c1coc2ccccc2c1=O)C(N)=S	5%[15.4 µM]	6.9	-103%	?	12%	-14	.
CCn1c(SCC(=O)N/N=C(\C)c2ccncc2)nnc1-c1ccccc1	5%[15.4 µM]	-1.9	-6%	-7	-11%	37	.
CCCCn1nnc(NC(=O)COc2ccc(Cl)c(C)c2)n1	-1%	2.4	5%	-11	-11%	59	0.9%
C/C=C/c1ccc(OCC(=O)Nc2ccc(OC)c(OC)c2)c(OC)c1	?	-5.2	-2%	12	-11%	14	0.3%
CC(Sc1nc2ccccc2s1)C(=O)N(C)Cc1ccccc1 (configuration not stated)	-2%[15.4 µM]	-0.9	1%	8	-6%	6	-0.2%
COc1ccccc1CN(CC(=O)NCc1ccc2c(c1)OCO2)C(=O)c1csnn1	-6%	1.3	14%	-31	-3%	8	.
Cc1ccc(C(C)C)cc1OCCCCN1CCCC1	8%	-3.2	?	3	7%	1	-5.1%
CC1(C)CC(=O)C(C=NCc2ccc3c(c2)OCO3)=C(O)C1	17%	2.0	14%	-1	8%	1	1.0%
Nc1cc(=O)[nH]c(SCC(=O)N2CCCc3ccccc32)n1	12%	2.9	17%	-1	4%	-7	-0.2%
COCCCNC(=O)c1cn(Cc2c(F)cccc2Cl)nn1	0%	1.5	15%	-1	2%	6	-1.6%
Cc1c(NC(=S)NC(=O)c2ccc(-c3ccc(Cl)cc3)o2)cccc1C(=O)O	?	5.8	-29%	-15	-23%	-10	.
CCCNC(=O)c1ccccc1NC(=O)C1=CSCCO1	-12%	.	7%	-14	-2%	1	-0.8%
Cc1ccc(NC(=O)CN(C)S(=O)(=O)c2cnc[nH]2)c(C)c1	7%	4.9	0%	7	5%	10	-1.2%
COc1ccc(Cl)cc1NC(=O)COC(=O)C1CCCCC1	?	.	.	-5	11%	51	-3.0%
O=C(NCCO)/C(=C\c1ccc2c(c1)OCO2)NC(=O)c1ccc(Br)cc1	3%	-2.8	9%	0	2%	-16	0.2%
Cc1cc(NC(=O)/C(C#N)=C/c2ccc(-c3ccc(SC(F)F)cc3)o2)n(-c2ccccc2)n1	-49%[inhibitor]	?	-3%	-6	15%	2	3.8%
CCCN1CCN(C(=O)CCNC(=O)Cn2cnc3ccccc3c2=O)CC1	?	1.8	9%	6	13%	6	.
Cn1ccnc1C1CCCCN1Cc1nc(-c2ccc(Cl)cc2)no1 (configuration not stated)	20%	6.9	-2%	10	11%	8	1.0%
C/C(N)=C(/C#N)C(=O)COC(=O)C(NS(=O)(=O)c1ccc(Cl)cc1)C(C)O (configuration not stated)	22%&-10%	-3.1	9%	-4	8%&6%	-5&-10	-0.7%
Nc1ccc(-c2ccc(C(=O)O)s2)cn1	-5%	-0.5	2%	2	4%	10	4.0%
Cc1ccc(-n2[nH]c(C)c(C=Nc3ccc(S(=O)(=O)Nc4nccs4)cc3)c2=O)c(C)c1	.	3.9	14%	7	.	.	.
CCn1c(SCC(=O)Nc2nc(C)cs2)nnc1C(C)NC(=O)c1ccccc1 (configuration not stated)	15%	0.5	6%	?	-9%	-16	-0.3%
Cc1cc(C)c(S(=O)(=O)Nc2ccc(O)c(Sc3ncn[nH]3)c2)c(C)c1	-56%[inhibitor]	4.4	-14%	6	0%	17	-12%
CCOC(=O)NC(=O)CSc1nc(C)cc(C(F)(F)F)c1C#N	-40%[inhibitor]	?	23%	1	-11%	-6	-12%

Continued:
SMILES	gsp agonist	Menin-MLL FL inh	Sfp PPTase inh	TRPV1 potentiator	gsp antagonist	TRPML1 inh	ClpP mod
O=C(NCC(c1ccco1)N1CCOCC1)c1ccc(F)c(F)c1 (configuration not stated)	2%[15.4 µM]	.	.	9	7%	-1	.
COc1ccc(N2CC(NS(=O)(=O)c3ccc4ccccc4c3)CC2=O)cc1 (configuration not stated)	-9%[15.4 µM]	.	.	-6	-17%	-1	.
O=C(Nc1ccc(S(=O)(=O)NC2=NCCCCC2)cc1)C1COc2ccccc2O1 (configuration not stated)	2%	-2.7	-1%	1	-5%	2	-0.6%
CCCC1=[N+](CC(=O)c2ccccc2)CCn2cccc21	13%	24	7%	7	8%	1	13%
CC(=O)CSc1nnc(NC(=O)CCc2ccccc2)s1	-37%[inhibitor]	4.0	13%	9	-6%	2	0.2%
CSc1ccccc1NC(=O)CN(C)C(=O)CCc1c[nH]c2ccccc12	?	.	7%	5	-2%	-9	.

Screening data: PubChem, National Center for Advancing Translational Sciences (NCATS)
